Six1-Eya2 blk = qHTS Assay for Inhibitors of the Six1/Eya2 Interaction. Homeobox protein SIX1 (Homo sapiens) + Protein phosphatase EYA2 (Homo sapiens), …. actives 0.56% (n = 360,000). activity change, % (no concentration beside the values). AlphaScreen GST-Six1/His-Eya2 binding, biochemical; hits give low values; control for the full effect not named in the record; in the data active = activity change below about -65%; inconclusive = about -30% to -65%; inactive = above about -30%; further: on the % scale 0 is the no-effect control and ±100 the full control effect; compound concentration not given in the record
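AlphaScreen with GST-Six1 and His-Eya2 (5X mix: 250 nM and 500 nM), glutathione donor and nickel acceptor beads; buffer 50 mM Tris pH 8.0, 300 mM NaCl, 1 mM TCEP; 1 h at 37 C in the dark.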
TRPML1 blocker = qHTS for Inhibitors of the Human Mucolipin Transient Receptor Potential 1 (TRPML1); TRPML1-inducible cells, Ca2+ dye fluorescence, FDSS; hits give low values; inhibition of EC80 agonist-evoked calcium signal; activity change, negative = inhibition, % (concentration not given with the values); actives 0.02% (n = 390,000); AID 624415, 2012; in the data active means activity change below about -50%; inconclusive means about -30% to -50%; inactive means above about -30%;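 further: stimulus is agonist 54-4 at its EC80 concentration; on the % scale 0 is the no-effect control and ±100 the full control effect; compound concentration not given in the record; the text of the record puts the active cut at -80%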
Target sequence (Q9GZU1 whole entry, looked up): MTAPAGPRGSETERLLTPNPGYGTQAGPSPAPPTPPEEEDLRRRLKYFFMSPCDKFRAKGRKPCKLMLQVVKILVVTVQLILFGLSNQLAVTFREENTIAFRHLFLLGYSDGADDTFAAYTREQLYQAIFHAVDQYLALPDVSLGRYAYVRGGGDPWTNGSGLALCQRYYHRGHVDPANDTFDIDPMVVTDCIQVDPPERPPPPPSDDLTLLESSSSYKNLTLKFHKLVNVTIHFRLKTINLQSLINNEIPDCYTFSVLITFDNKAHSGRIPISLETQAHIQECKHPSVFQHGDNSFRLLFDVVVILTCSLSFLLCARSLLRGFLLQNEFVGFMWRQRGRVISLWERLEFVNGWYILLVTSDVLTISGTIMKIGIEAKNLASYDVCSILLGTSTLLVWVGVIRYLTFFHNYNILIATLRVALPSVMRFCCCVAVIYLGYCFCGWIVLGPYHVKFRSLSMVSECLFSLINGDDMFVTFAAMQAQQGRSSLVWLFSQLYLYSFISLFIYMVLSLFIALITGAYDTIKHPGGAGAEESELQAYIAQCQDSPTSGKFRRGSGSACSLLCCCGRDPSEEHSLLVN
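Tet-induced TRPML1-DL cells loaded with Ca8 no-wash calcium dye were read kinetically on FDSS. Compound addition was followed by EC80 agonist 54-4 (4 uM final); inhibition was read over 110 s.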
D2 ag = Beta-Arrestin HTS for Positive Allosteric Modulators of the Human D2 Dopamine Receptor: Agonists. D(2) dopamine receptor (Homo sapiens), P14416. DiscoveRx PathHunter D2 beta-arrestin, luminescence, 90 min; 100% = 57 uM dopamine signal. activation, % (concentration not given with the values). actives 0.084% (n = 360,000); in the data active = activation above about 40%; inconclusive = about 15% to 40%; inactive = below about 15%; further: compound concentration not given in the record; the text of the record calls up to 30% inactive
Target sequence (P14416 whole entry, looked up): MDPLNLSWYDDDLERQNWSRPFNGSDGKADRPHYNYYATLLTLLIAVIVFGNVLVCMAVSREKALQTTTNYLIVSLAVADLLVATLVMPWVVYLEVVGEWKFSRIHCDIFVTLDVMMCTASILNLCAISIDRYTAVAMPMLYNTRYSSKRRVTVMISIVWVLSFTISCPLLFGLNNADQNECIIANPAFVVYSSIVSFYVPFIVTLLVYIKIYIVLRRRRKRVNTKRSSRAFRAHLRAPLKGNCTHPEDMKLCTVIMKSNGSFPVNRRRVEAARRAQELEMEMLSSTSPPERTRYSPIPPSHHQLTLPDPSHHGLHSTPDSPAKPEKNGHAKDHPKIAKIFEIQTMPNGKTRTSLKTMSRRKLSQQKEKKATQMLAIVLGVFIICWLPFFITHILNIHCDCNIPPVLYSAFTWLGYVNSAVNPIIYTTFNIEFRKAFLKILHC
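Agonist mode: compounds alone added to overnight-plated D2 PathHunter cells for 90 min at 37 C, with 57 uM final dopamine (EC100) defining full response. Beta-arrestin recruitment detected by chemiluminescent reagent, read after 1 h at ambient temperature.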
TRPML1 ag = qHTS for Agonists of the Human Mucolipin Transient Receptor Potential 1 (TRPML1). activation, % (no concentration beside the values). actives 0.12% (n = 410,000). TRPML1-expressing cells, Ca2+ dye fluorescence, FDSS; host cell line not named in the record; reference of the full effect not given here. Mucolipin-1 (Homo sapiens), Q9GZU1. AID 624414, 2012; in the data active = activation above about 50%; inconclusive = about 30% to 50%; inactive = below about 30%; further: 0% is about no effect; the text of the record puts the active cut at 80%
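TRPML1-DL cells, Tet-induced overnight (~16 h, 37 degrees C), loaded 45-90 min at room temperature with Ca8 no-wash calcium dye plus quencher. FDSS fluorescence: 10 s baseline, compound pin-transfer, 110 s agonist read, then EC80 54-4 (4uM final) and 110 s antagonist read.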
PINK1 expr mod = A Quantitative High throughput Screen to Identify Chemical Modulators of PINK1 Expression. AID 624263, 2012. actives 0.2% (n = 410,000). PINK1 immunofluorescence, high-content cytometry, 24 h. Potency, µM (series often up to 76.6 µM), for the others: at the top dose activation (PINK1 increase), actives largely listed as activators; active = well fitted activation curve with a large enough effect; inconclusive = small, poorly fitted or top-dose-only effect; inactive = flat fitted curve, though single readings scatter; cell line not stated here;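 further: potency means the concentration at half of the fitted maximal effect; % of control where 0% means no effect; nearly all actives have a fitted effect of over 65% in size; a mitochondrial uncoupler was the plate control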
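PINK1 protein, normally rapidly degraded, was detected by immunofluorescence after 24 hour compound treatment of a stable cell line. Titration data (5 concentrations) came from laser-scanning cytometry, with CCCP-treated wells as controls.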
CtBP-E1A blk = qHTS Assay for Inhibitors of the CtBP/E1A Interaction; AlphaScreen GST-E1A/His-CtBP binding, 1536-well; hits give low values; control for the full effect not named in the record; activity change, % (test concentration not listed); actives 0.49% (n = 340,000); AID 651724, 2012; in the data active means activity change below about -65%; inconclusive means about -30% to -65%; inactive means above about -30%; further: on the % scale 0 is the no-effect control and ±100 the full control effect; compound concentration not given in the record
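Homogeneous bead-based format: GST-tagged E1A captured on glutathione donor beads, His-tagged CtBP on nickel acceptor beads; compounds precede bead addition by 2 h at 37 °C.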
Numbers without * were called inactive; ? = inconclusive; · = no result given; & = joins results of further samples; [ ] = dose if it differs, or a comment.

Values in the order – CtBP-E1A blk	TRPML1 blocker	Six1-Eya2 blk	D2 ag	TRPML1 ag	PINK1 expr mod
C=CCN1C(=O)c2ccc(C(=O)OCC(=O)N3CCN(c4ccccc4)CC3)cc2C1=O
  5	-11	-14	-3.3	-0.3	3.0%
Cc1ccc(S(=O)(=O)/N=C(\CN2CCOCC2)N2CCCC2)cc1
  51	-21	24	1.4	-0.2	·
CN1C(=O)OC(C)(CCc2ccccc2)C1(C)O (configuration not stated)
  4	0	0	-2.8	-0.5	-0.2%
CCN(CC)CCNS(=O)(=O)c1ccc2[nH]cc(C(=O)O)c(=O)c2c1
  -24	-6	-7	-1.0	0.5	?
Cc1ccc(Cl)c(OCC(=O)Nc2ccc(S(=O)(=O)NC3=NCCCCC3)cc2)c1
  -5	8	-1	1.3	2.0	-1.0%
CCc1ccccc1NC(=O)Cn1ccn(-c2cc(C)cc(C)c2)c(=O)c1=O
  ·	3	·	·	1.8	-1.1%
O=C(O)c1ccc(S(=O)(=O)N2CCc3ccccc3C2)cc1
  4	11	5	2.0	-0.1	0.6%
CC1CN(C(=S)NC(=O)c2ccco2)CC(C)O1 (configuration not stated)
  0	12	0	-3.7	-0.2	16%
COc1ccc(C(=O)N[C@H](C(=O)NCc2cccs2)C(C)C)cc1
  -4	32	1	-3.4	-0.2	0.8%
COc1c(Br)cc(Br)cc1/C=N/NC(=O)c1cccnc1
  -2	-6	-8	-1.1	0.7	5.9%
CCOC(=O)c1c(C)c(-c2ccccc2)n(CC(=O)Nc2cc(OC)cc(OC)c2)c1C
  ·	-12	·	·	1.5	11%
CCOC(=O)CSc1nnc(CNc2cccc(Cl)c2)n1C
  -1	-7	-2	-1.4	-0.8	-0.1%
COCCNc1nc(-c2cc3ccccc3o2)cs1
  -9	13	-7	-1.7	2.4	4.3%
COc1ccc(C(CNC(=O)c2ccc(C)cc2)N2CCOCC2)cc1 (configuration not stated)
  ·	-2	·	·	-0.2	0.6%
Sc1oc(-c2ccccc2)cc1C=Nc1ccccc1
  -73*	8	-71*	4.4	-0.4	0.7%[38.3 µM]
CC(C)C(CC(=O)NCc1ccco1)c1ccco1 (configuration not stated)
  3	14	-1	11	0.5	-1.0%
Nc1nc2ccc(C(=O)NCCOC(=O)C3CCCCC3)cc2s1
  ·	-15	-77*	4.2	-0.1	2.6%
NNc1nc2cccnc2n(CCNc2ncc(C(F)(F)F)cc2Cl)c1=O
  0	-14	1	-0.8	0.1	?
COc1ccc(S(=O)(=O)N2CCN(C(=O)c3ccc(COc4ccccc4)o3)CC2)cc1
  -6	2	-2	3.5	1.1	-1.3%
Nc1nc(NCc2c(F)cccc2Cl)nn1-c1ccccc1
  -2	-3	-3	-2.9	0.7	3.1%

Profiles as entered above. Screens in order: CtBP-E1A blk, TRPML1 blocker, Six1-Eya2 blk, D2 ag, TRPML1 ag, PINK1 expr mod
Shown for NNc1nc2cccnc2n(CCNc2ncc(C(F)(F)F)cc2Cl)c1=O → 0, -14, 1, -0.8, 0.1, ?
Shown for Nc1nc2ccc(C(=O)NCCOC(=O)C3CCCCC3)cc2s1 → ·, -15, -77*, 4.2, -0.1, 2.6%
Shown for COc1ccc(C(CNC(=O)c2ccc(C)cc2)N2CCOCC2)cc1 (configuration not stated) → ·, -2, ·, ·, -0.2, 0.6%
Shown for Nc1nc(NCc2c(F)cccc2Cl)nn1-c1ccccc1 → -2, -3, -3, -2.9, 0.7, 3.1%
Shown for Sc1oc(-c2ccccc2)cc1C=Nc1ccccc1 → -73*, 8, -71*, 4.4, -0.4, 0.7%[38.3 µM]

(next part)
Values in the order – CtBP-E1A blk	TRPML1 blocker	Six1-Eya2 blk	D2 ag	TRPML1 ag	PINK1 expr mod
Cc1sc2ncnc(Sc3nnnn3-c3ccccc3)c2c1C
  14	19	-2	-1.5	1.2&-0.7	0.0%
Cc1cc(C)c(NC(=O)CN(C)CC(=O)N(C)CC(=O)Nc2c(Cl)cccc2Cl)c(C)c1
  ·	5	24	1.3	-1.3	2.1%
Cc1csc(CNC(=O)c2ccc(OC3CCN(CCc4ccccc4)CC3)cc2)n1
  -7	0	-3	0.6	0.3	-2.1%
O=C(NCCn1ccc2ccccc21)c1ccc(S(=O)(=O)N2CCCCC2)cc1
  0	-6	-7	1.7	0.6	1.1%
Cc1ccc(S(=O)(=O)N2CCN(C(=O)c3cc(S(=O)(=O)N4CCOCC4)c(Cl)cc3Cl)CC2)cc1
  ·	-5	-4	-1.2	-0.8	2.1%
Cc1ccc(NC(=O)C(C)Sc2nnc(-c3cccnc3)n2-c2ccccc2)cc1 (configuration not stated)
  -10	-3	-3	-1.4	1.0	4.3%[38.3 µM]
COc1cc(C(=S)N2CCOCC2)cc(OC)c1O
  6	5	4	1.4	0.6	6.1%
COc1ccccc1C(=O)Nc1ccccc1N1CCN(S(C)(=O)=O)CC1
  -2	-5	1	-1.7	-0.4	-2.2%
Cc1ccc(CNC(=O)CN(C)S(=O)(=O)c2ccc(F)cc2)cc1
  ·	-6	2	-3.8	-1.1	1.3%
O=C(Nc1ccccc1)c1ccccc1CCc1ccccc1
  19	-9	8	-1.3	1.1	1.2%[38.3 µM]
Cc1cccc(NCN2C(=O)C3C4C=CC(C4)C3C2=O)c1 (configuration not stated)
  3	16	3	-1.8	0.6	·
C(=N\c1nccs1)/Nc1nccs1
  6	-8	3	-1.5	-0.5	-0.9%
CC(C)c1cccc(C(C)C)c1NC1=NS(=O)(=O)c2ccccc21
  ·	-5	·	·	-0.6	-1.5%
CN1C(=O)CC(N2CCN(c3ccccc3)CC2)C1=O (configuration not stated)
  -1	-9	13	2.4	1.7	-2.2%
NS(=O)(=O)c1ccc(N2N=C(c3ccccc3)CC2c2ccc(Br)cc2)cc1 (configuration not stated)
  27	-10	26	1.4	0.1	-0.1%
CNC(=S)Nc1ccc([N+](=O)[O-])cc1C
  3	1	5	3.6	2.2	0.4%
CCC(=O)NNc1ncnc2c1cnn2-c1ccccc1
  1	10	0	-4.9	0.0	2.3%
CCc1csc(CCNC(=O)C2CCC(=O)N(CCc3cccc(F)c3)C2)n1 (configuration not stated)
  16	-14	7	-4.2	-0.3	0.7%
CCN1C(=NCCCOC(C)C)N[C@@H](CCc2ccccc2)[C@H](C(=O)NCCCOC(C)C)[C@H]1C
  3	7	-5	-3.8	0.0	22µM*
O=C(CSc1nc(-c2ccccc2)nc2cc(=O)[nH]n12)Nc1ccccc1
  ·	-3	·	·	-1.0	3.9%
CC(C)C(NS(=O)(=O)c1cccc2nsnc12)C(=O)N1CCn2c1nc1ccccc12 (configuration not stated)
  2	11	-2	-3.8	-0.8	-0.3%
COc1ccc(-c2coc3c(C(=O)NCCN4CCOCC4)cccc23)c(C)c1
  -8	·	-15	2.1	-0.1	5.6%
O=C(CSc1nnc(-c2c[nH]c3ccccc23)n1C1CC1)NC1CCS(=O)(=O)C1 (configuration not stated)
  0	-7	-4	-1.9	-1.0	-1.0%
Nn1c(SCC(=O)Nc2ccccc2)nnc1-c1cccnc1
  2	-28	1	2.9	0.1	5.1%
Cc1ccc(C(c2nnnn2C(C)(C)C)N(Cc2ccco2)Cc2cccs2)cc1 (configuration not stated)
  1	-9	-16	-6.1	60*	4.2%
COc1ccc(C(=O)Nc2ccc(C)cc2C(=O)c2ccccc2)cc1
  -6	6	-9	-1.7	1.9	6.3%
[O-][n+]1c2ccccc2c2n1CCCN=C2c1ccc(Cl)cc1
  -7	39	-4	-3.4	0.4	1.7%
C[C@H](CO)N1C[C@H](C)[C@@H](CN(C)C(=O)Nc2ccccc2)Oc2c(NS(=O)(=O)c3ccccc3)cccc2C1=O
  -4	-14	1	0.3	-0.8	0.2%
Cc1ccc(Cc2c(C)nc3nc(SCC(=O)NCCCN4CCCCC4)nn3c2C)cc1
  0	20	-7	-3.6	1.5	-0.3%
CCOC(=O)C1CCCN(C(=O)c2ccc3c(c2)N(Cc2ccccc2F)C(=O)c2ccccc2S3=O)C1 (configuration not stated)
  ·	7	·	·	-1.5	3.2%
CC(NS(=O)(=O)c1ccc(Cl)cc1)C(=O)N1CCOCC1 (configuration not stated)
  1	-11	4	-3.0	-0.3	1.4%
O=C1CCC(C(=O)Nc2nnc(C3CC3)s2)=NN1
  1	-6	7	-4.3	0.5	-0.9%
O=C(O)[C@@H]1Cc2c([nH]c3ccccc23)C2CCC(=O)N21 (some centres not stated)
  -1	10	12	-2.0	1.0	-0.5%
CCCCCCC1/C(=N\NC(=O)c2ccccc2)CCC1C(=O)OC (configuration not stated)
  -2	-10	-10	0.4	1.0	-2.2%
COc1ccccc1NC(=O)CSc1nnc(NC(=O)Nc2ccc(C)cc2)s1
  ·	3	·	·	0.7	?
COc1ccc(Cl)cc1NC(=O)c1nnn(Cc2cccc(C(F)(F)F)c2)c1N
  ·	-14	·	·	0.3	3.8%
COC(=O)CNC(=O)COC(=O)Cc1ccc(Cl)cc1
  16	8	0	-3.3	-0.5	1.3%
Cc1cccc(Oc2nc(-c3cccc([N+](=O)[O-])c3)nc3ccccc23)c1C
  -2	9	6	0.0	0.5	-0.3%
CCCCCOC(=O)c1ccc(NC(=O)c2ccco2)cc1
  -2	7	0	-3.2	1.3	?
O=C(CCSc1ccccc1)N1CCOCC1
  -2	-8	2	-1.1	0.0	-0.9%
CCOC(=O)C1Oc2ccccc2C(C(=O)OC)=C1C(=O)OC (configuration not stated)
  9	6	5	-14	3.8	-1.6%
CCOC(=O)c1c(NC(=O)CSc2cccc[n+]2[O-])sc(C(=O)Nc2ccccc2)c1C
  -16	10	-16	3.1	-0.2	6.3%
Cc1ccc(CC(=O)NCc2ccc(F)cc2)cc1
  -2	-3	0	-4.6	-0.5	2.5%
COc1ccc(CCN(C)CC(=O)Nc2ccc(F)c(Cl)c2)cc1OC
  -23	15	-8	0.1	0.6	0.0%
C=CCn1c2ccccc2c(=O)c2cc(C#CC[C@@H](C)O)ccc21
  0	1	13	-0.6	0.5	0.3%
CCOC(=O)C(C)Oc1nc(Oc2ccccc2)nc(N(C)C)n1 (configuration not stated)
  5	-1	-1	1.7	-0.7	2.3%
O=C(OCc1ccccc1)c1ccc(Br)o1
  13	0	39	-3.9	2.0	1.4%
CC1CCCCN1CC(=O)Nc1sc2c(c1C#N)CCC2 (configuration not stated)
  -2	0	-10	-3.2	1.1	-1.9%
CC(=O)Nc1cccc(Cl)c1C(=O)O
  8	1	-1	-1.5	-0.6	0.3%
CCCc1nc2oc3ccccc3c(=O)c2c(=O)n1-c1ccccc1
  -12	4	-9	-0.1	-0.2	-1.8%
